VDR inhibitor: Inhibitors of the vitamin D receptor (VDR): qHTS; Potency, µM, for the others: max response, negative = inhibition, hits mostly inhibitors; Vitamin D3 receptor (Homo sapiens), P11473; 0.93% of 400,000 active; VDR-SRC2-3 peptide fluorescence polarization, 2 h; active = well fitted inhibition curve with a large enough effect; inconclusive = small, poorly fitted or top-dose-only effect, or another doubt; inactive = no such curve, though single readings can be large or run the other way; note: series mostly up to about 120 µM
Target sequence (P11473 whole entry, looked up): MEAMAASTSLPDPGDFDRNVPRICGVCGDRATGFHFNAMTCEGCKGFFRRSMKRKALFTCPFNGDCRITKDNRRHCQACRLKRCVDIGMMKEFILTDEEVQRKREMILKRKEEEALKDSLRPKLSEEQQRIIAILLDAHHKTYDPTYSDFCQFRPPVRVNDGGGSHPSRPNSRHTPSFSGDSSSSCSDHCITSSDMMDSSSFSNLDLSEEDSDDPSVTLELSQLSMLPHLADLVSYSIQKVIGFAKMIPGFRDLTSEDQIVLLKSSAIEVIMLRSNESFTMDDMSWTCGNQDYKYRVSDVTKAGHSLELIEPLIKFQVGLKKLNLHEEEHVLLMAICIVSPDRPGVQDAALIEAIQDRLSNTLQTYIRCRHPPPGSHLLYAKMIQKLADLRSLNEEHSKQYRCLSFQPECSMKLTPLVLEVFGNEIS
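FP read-out; VDR + SRC2-3 coactivator peptide; 23 nl compound by pintool; 2 h RT incubation; reagents held at 4 deg C, protected from light.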
An asterisk follows results filed as active; ? = inconclusive. % is set by controls: 0 for no effect and ±100 for the full control effect; potency is the fitted concentration of half-maximal effect. These rows are one share of the data. The share of hits here may be higher or lower than overall.

SMILES | VDR inhibitor
FC(F)(F)c1cccc(N2CCN(c3nnnn3-c3ccccc3)CC2)c1 | 3.3%
CCOC(=O)COc1cc(=O)n(CC)c2ccccc12 | 10.6%
CSc1ccccc1NC(=O)CN(C)C(=O)c1c(C)nn(Cc2ccccc2)c1C | 2.1%
C#CCOc1coc(COC(=O)c2ccccc2)cc1=O | 10.4%
O=C(NCCOC(=O)C1COc2ccccc2O1)c1cccnc1 (centres undefined) | -1.1%
COc1ccc(C2c3c(n(C)c4ccccc34)C(=O)N2CC(=O)Nc2cccc(F)c2)cc1 (centres undefined) | 3.9%
Cc1cc(C)n(CC(C)Nc2nc3nonc3nc2N2CCCCC2)n1 (centres undefined) | -23.5%
COc1ccccc1N1CCN(C(=O)Nc2cccc(C)c2)CC1 | -6.4%
CCOc1cc(C(=O)OCC(=O)Nc2cc(C)on2)ccc1OCC(C)C | -10.6%
CCCC(=O)C1=C(O)C(C(=O)OC)C(C)(C)CC1=Nc1ccccc1 (centres undefined) | 11.5%
CC1CN(C(=O)COC(=O)c2nn(-c3ccccc3)c(=O)c3ccccc23)CC(C)O1 (centres undefined) | -5.6%
CC1CCN(S(=O)(=O)c2cn(CC(=O)Nc3ccc(F)c(Cl)c3)c(=O)c3ccccc23)CC1 | -24.8%
CN1C(=O)C(O)(CC(=O)c2cccc(-n3cccc3)c2)c2ccccc21 (centres undefined) | ?
CN(C)C(CNC(=S)Nc1ccccc1Cl)c1cccnc1 (centres undefined) | -17.8%
CCOC(=O)C1CCCC12Nc1cccc3cccc(c13)N2 (centres undefined) | -0.8%
Cc1ccc(C(=O)NC2(C(F)(F)F)C(=O)Nc3c2c(=O)[nH]c(=O)n3CCc2ccccc2)cc1 (centres undefined) | -6.9%
CCOc1cc(/C=N/Nc2nnc(C)n2N)ccc1O | -2.7%
Cc1cc(C(=O)OCC(=O)Nc2nc(-c3ccccc3)cs2)c(C)o1 | -4.3%
O=C1CC(=O)Nc2cc(S(=O)(=O)N3CCOc4ccccc43)ccc2N1 | ?
COc1ccc(N2CCN(CC(O)COc3ccc([N+](=O)[O-])cc3)CC2)cc1 (centres undefined) | -16.9%
O=C(CNC1C(=O)Nc2ccccc21)Sc1ccccc1 (centres undefined) | -7.5%
O=C(NCCCN1CCCC1=O)c1cc(S(=O)(=O)N2CCN(c3ccccc3)CC2)ccc1Cl | -4.5%
COc1ccccc1OCCCCCc1c(C)n[nH]c1C | 2.8%
CCOCCCNC(=O)C(c1ccc(OC)cc1)N(Cc1ccc2c(c1)OCO2)C(=O)c1ccccn1 (centres undefined) | 2.0%
Cc1ccc2c(c1)C(c1ccncc1)=NNC(c1ccc(F)cc1)=N2 | -0.4%

Exported as tab-separated lines: three of the compounds above
compound	VDR inhibitor
COc1ccccc1N1CCN(C(=O)Nc2cccc(C)c2)CC1	-6.4%
CCOc1cc(C(=O)OCC(=O)Nc2cc(C)on2)ccc1OCC(C)C	-10.6%
CCCC(=O)C1=C(O)C(C(=O)OC)C(C)(C)CC1=Nc1ccccc1 (centres undefined)	11.5%

Continued.
SMILES | VDR inhibitor
Cc1[nH]c2ccc(C(=O)NCCCN(C)C3CCCCC3)cc2c1C | -4.2%
O=C(CCSc1ccccc1)Nc1nnc(-c2ccccc2)o1 | 17.4%
COc1ccc(NC2SC(=O)N(C)C2=O)cc1 (centres undefined) | 19.0%
Cc1cc(-c2ccc(Cl)cc2)n2nc(N)nc2n1 | 8.3%
CC(C)(C)n1nnnc1C(c1cccs1)N(Cc1ccccc1)Cc1cccnc1 (centres undefined) | 3.7%
Cn1c(SCc2ccccc2)nnc1-c1ccc2nonc2c1 | 7.9%
COc1ccc(OC)c2c1nc1n2CCS1 | ?
CN(C(=O)c1ccccc1C(=O)OCC(=O)Nc1ccc(OC(F)F)cc1)c1ccccc1 | -0.6%
OCC[C@@H]1C[C@@H](O)[C@H](O)[C@]2(Cc3ccccc3CCO2)O1 | 5.6%
CCCN1CCN(S(=O)(=O)c2ccc(OC)c(Br)c2)CC1 | -1.4%
O=C(Nc1c(-c2ccccc2)nc2ccccn12)c1ccco1 | 3.6%
CC(=O)c1cccc(NC(=O)CCCSc2ccccc2)c1 | 16.9%
COc1ccc(-c2sc3ccc(N4CCOCC4)cc3c2C#CC2(O)CCCCC2)cc1 | -22.8%
CCC(CC)C(=O)Nc1cc(-c2cccc(C)c2)nn1-c1ccccc1 | 10.0%
COc1ccccc1NC(=S)NCCN1CCOCC1 | -13.5%
O=C(CSc1ncnc2nc[nH]c12)c1ccccc1 | -8.8%
COc1ccccc1CN(C)C(=O)c1cc2ccccc2o1 | 8.2%
COc1ccc(C(=O)N2CC=C(c3ccccc3)CC2)cc1S(=O)(=O)N1CCOCC1 | -1.8%
Oc1ccccc1-c1nc(NCc2cccnc2)c2ccccc2n1 | -10.1%
O=C(c1ccc(N2CCN(S(=O)(=O)c3ccccc3)CC2)c([N+](=O)[O-])c1)N1CCOCC1 | -5.8%
CCS(=O)(=O)c1nc(S(=O)(=O)c2ccc(C)cc2)c(NCCCN2CCOCC2)s1 | -1.2%
Cc1ccccc1CNC(=O)CSc1nnc(C)c2c(C)n(-c3ccccc3)nc12 | 1.5%
CCCCCc1nnc(NC(=O)C2COc3ccccc3O2)s1 (centres undefined) | 2.5%
CCCC1C(=O)N(c2ccccc2)C1c1ccccc1 (centres undefined) | -2.1%
C=CCN(C(=O)c1csnn1)C(C(=O)NCc1ccc(F)cc1)c1ccccc1 (centres undefined) | -0.7%
Following part.
SMILES | VDR inhibitor
COc1ccc(S(=O)(=O)N2CCN(Cc3nc4ccc(C)cc4o3)CC2)cc1Cl | 20.6%
N/C(=N\OC(=O)c1cnn(-c2ccccc2)c1C(F)(F)F)c1ccc(C(F)(F)F)cc1 | 2.5%
Cc1c(-c2nc(-c3ccc4c(c3)OCO4)no2)nnn1-c1ccc(C(C)C)cc1 | 8.1%
COc1ccccc1NC(=O)N1CCN(c2ncccn2)CC1 | -9.7%
Cc1nc(C)c(Cc2ccccc2Cl)c(=O)[nH]1 | -4.5%
COC(=O)c1sccc1NC(=O)C1CC(C)=C(C)CC1C(=O)O (centres undefined) | -0.2%
CN(Cc1ccccn1)C(=O)C1CCC(=O)N(Cc2cccc(C(F)(F)F)c2)C1 (centres undefined) | 8.5%
COc1ccc(Cn2c(=O)c3ccccc3n3c(-c4ccc(C)cc4)nnc23)cc1 | 11.0%
COC(=O)c1cc(-c2ccc(Cl)cc2Cl)n[nH]1 | -2.8%
Cn1c(-c2ccccn2)[n+](C)c2ccccc21 | 0.6%
COc1ccc(C(=O)Nc2nc3c(s2)Cc2cc(OC)ccc2-3)cc1 | ?
O=C(Nc1ccc(COc2ccccc2)cc1)Nc1cccc(C(=O)O)c1 | -10.0%
COC(=O)c1ccc(CSc2nc3c(c(=O)n2-c2ccc(C)cc2)SCC3)o1 | -14.0%
O=C(NCCc1c[nH]c2ccccc12)/C(=C\c1cccnc1)NC(=O)c1ccccc1Br | -10.6%
CC(C)NC(=S)N/N=C/c1cccs1 | -2.5%
Cc1cc(C)cc(OCC(=O)N/N=C/c2ccncc2)c1 | -2.4%
CC1CN(c2ccccc2)CCN1C(=O)c1cc(COc2c(F)cccc2F)on1 (centres undefined) | 7.4%
CCCCn1cnc2c(SCc3ccc(Br)cc3)nc(N)nc21 | -5.4%
O=C(Nc1ccccc1N1CCN(C(=O)c2ccccc2)CC1)c1cccc(Cl)c1 | -13.7%
COc1ccc(N=Nc2c(C)[nH][nH]c2=O)cc1 | -4.3%
COc1cc(/C=C/C(=O)OCC(=O)N2CCN(C(=O)c3ccco3)CC2)ccc1O | -1.6%
Cc1cc(C)c(S(=O)(=O)Oc2ccccc2[N+](=O)[O-])c(C)c1 | -6.5%
CN(C)C(=O)c1nnsc1Sc1ccc(Cl)cc1 | -3.5%
CCN(c1ccccc1)S(=O)(=O)c1cccc(C(=O)OCC(=O)c2c(N)n(C)c(=O)n(C)c2=O)c1 | -2.7%
COc1ccccc1N1CCN(C(=O)C2CCC(Cn3c(=S)[nH]c4ccccc4c3=O)CC2)CC1 (centres undefined) | 17.2%

By substructure: the entries above with a Cl atom.
SMILES | VDR inhibitor
CC1CCN(S(=O)(=O)c2cn(CC(=O)Nc3ccc(F)c(Cl)c3)c(=O)c3ccccc23)CC1 | -24.8%
CN(C)C(CNC(=S)Nc1ccccc1Cl)c1cccnc1 (centres undefined) | -17.8%
O=C(NCCCN1CCCC1=O)c1cc(S(=O)(=O)N2CCN(c3ccccc3)CC2)ccc1Cl | -4.5%
Cc1cc(-c2ccc(Cl)cc2)n2nc(N)nc2n1 | 8.3%
COc1ccc(S(=O)(=O)N2CCN(Cc3nc4ccc(C)cc4o3)CC2)cc1Cl | 20.6%
Cc1nc(C)c(Cc2ccccc2Cl)c(=O)[nH]1 | -4.5%
COC(=O)c1cc(-c2ccc(Cl)cc2Cl)n[nH]1 | -2.8%
O=C(Nc1ccccc1N1CCN(C(=O)c2ccccc2)CC1)c1cccc(Cl)c1 | -13.7%
CN(C)C(=O)c1nnsc1Sc1ccc(Cl)cc1 | -3.5%

(list continues)
SMILES | VDR inhibitor
O=C(Nc1nc2ccccc2[nH]1)c1ccc(Cl)c([N+](=O)[O-])c1 | 9.0%
COc1ccc(OC)c(S(=O)(=O)NCCc2csc(-c3cccnc3)n2)c1 | -8.1%
C=CCNC(=S)N/N=C/c1ccc(C(C)(C)C)cc1 | -10.9%
CC1CCC(N(CCCN)Cc2ccco2)CC1C (centres undefined) | -16.1%
Cc1ccccc1-c1nnc(CN2CCN(c3cccc(C)c3C)CC2)o1 | -12.0%
COc1ccccc1NC(=O)c1ccc(NC(=O)C2CC2)cc1 | 15.0%
Fc1cccc(Cl)c1Cn1nnc2c(NCc3ccccn3)ncnc21 | 10.0%
COc1ccc(CN2CCN(CC3CC3)CC2CCO)cc1C (centres undefined) | ?
Cc1ccc(NC(=O)C(C)OC(=O)COc2cccc(C(F)(F)F)c2)cc1S(=O)(=O)N1CCOCC1 (centres undefined) | -1.8%
Cc1cccc(N2C(S)=C(C#N)C(=O)NC2c2ccco2)c1 (centres undefined) | 28.2µM*
O=C(Nc1ccc(-c2ccccc2)cc1)c1ccc2c(c1)S(=O)(=O)c1ccccc1C2=O | -6.2%
Cn1c(SCC(=O)NCc2ccco2)nnc1C1CC1 | -13.7%
CC1(C)CC2(C)OC(=N)C1(C#N)C2(C#N)C#N (centres undefined) | -18.0%
CCCC(=O)Nc1sc(C(=O)OC)c(C)c1C(N)=O | -17.4%
C(=C\c1ccccc1)/CSc1nnc(-c2cnccn2)n1Cc1ccco1 | ?
OCC1(CCOc2ccccc2)CCN(Cc2ccc3c(c2)OCCO3)CC1 | -15.3%
Nc1cc(Cl)cc2c1-c1ccc(Cl)cc1C2 | -1.3%
CN(C)c1ccc(N=C/C=C2\N(C)c3ccccc3C2(C)C)cc1 | -3.6%
CCCCN(C)CCCNC(=O)Cn1nc(CC)n2c(cc3sc(C)cc32)c1=O | 4.5%
Cn1c(N)cc(-c2ccc(F)cc2)c(C#N)c1=O | -8.8%
CC[C@H](C)[C@H](NC(=O)[C@H](CCCN=C(N)N)NC(=O)[C@H](CCCN=C(N)N)NC(=O)[C@H](CC(C)C)NC(=O)[C@H](Cc1ccccc1)NC(=O)CNC(=O)CN)C(=O)N[C@@H](CCCN=C(N)N)C(=O)N1CCC[C@H]1C(=O)N[C@@H](CCCCN)C(=O)N[C@@H](CC(C)C)C(=O)N[C@@H](CCCCN)C(=O)O | 2.4%
CCOC(=O)c1sc2nc(C)nc(NCc3ccccc3)c2c1C | -24.5%
CCc1nc2ccccc2c(C(=O)OCC(=O)NC2CC2)c1C | 15.8%
O=C(Nc1ccccc1)c1sccc1Oc1ccc([N+](=O)[O-])cc1F | -9.9%
Cc1cccn2c(=O)c(C=O)c(N3CCCCCC3)nc12 | 10.4%
Next section
SMILES | VDR inhibitor
CC1CN(Cc2cn(C)nc2-c2ccc(Oc3ccccc3)cc2)CCN1C (centres undefined) | -13.9%
CCOC(=O)C1C(=O)C=C(N2CCOCC2)CC1c1cccc(OC)c1 (centres undefined) | 1.0%
COc1cccc(C(=O)NCCNC(=O)c2ccc(C)nc2)c1 | 14.6%
COc1ccc(C(=O)CNC2=NCCC2)cc1 | -17.0%
COc1ccc(C)cc1NC(=O)Cn1c(=O)oc2cc(S(=O)(=O)N3CCCCC3)ccc21 | 9.7%
CC(NC(=O)C12CC3CC(CC(O)(C3)C1)C2)c1ccc(Cl)cc1Cl (centres undefined) | -0.8%
Cc1ccc2c(c1)[C@H]1[C@H](CO2)[C@H](c2ccccc2)[C@]2(C)C(=O)Nc3ccc(F)cc3C(=O)N12 | -12.4%
CC1=NOC(=O)/C1=C\c1ccc(-c2ccc(Cl)cc2Cl)o1 | 22.4µM*
COc1ccc(NS(=O)(=O)c2ccc3c(c2)CCCN3C(=O)C2CCC2)cc1OC | 3.3%
O=C(Nc1ccccc1N1CCN(C(=O)c2ccccc2)CC1)c1cc(Br)ccc1Cl | -8.4%
CC(Sc1ccccc1F)C(=O)Nc1cccc(S(=O)(=O)N2CCOCC2)c1 (centres undefined) | 17.1%
O=C(CN1C(=O)c2ccccc2S1(=O)=O)NCc1cccnc1 | -0.3%
CC(C)[C@H](NC(=O)N1CC(=O)Nc2ccccc21)C(=O)N[C@H](Cc1ccccc1)C(=O)O | 10.1%
COCCN(Cc1cccs1)S(=O)(=O)c1ccc(-c2ccc(=O)[nH]n2)s1 | -14.6%
COc1nc(N(C)C)nc(N(OC)S(=O)(=O)c2ccccc2Cl)n1 | -15.0%
CC(Cc1cccnc1)NC(=O)c1ccccc1OC1CCN(S(C)(=O)=O)CC1 (centres undefined) | 1.2%
O=C(CCC1CCN(C(=O)c2ccccc2Cl)CC1)NCc1ccc(F)cc1 | -6.3%
OC1CCN(Cc2nc(Cc3ccccc3Cl)no2)CC1 | -11.1%
CC(OC(=O)c1ccc(S(=O)(=O)NCc2ccco2)cc1)C(=O)Nc1ccccc1 (centres undefined) | 7.8%
CN(Cc1cnccn1)Cc1cn(Cc2ccccc2)nc1-c1ccc2c(c1)OCO2 | -2.6%

Screens deposited in PubChem by National Center for Advancing Translational Sciences (NCATS).
